# From PubChem
# Env fusion inh – blocks HIV Env-driven cell-cell fusion; AID 651610; inhibition, % at 12.3 µM; 1.1% of 360,000 active; HeLa-JRFL Env/CEM21 cell fusion, luciferase;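 active means mean replicate inhibition score of at least 50 and every replicate individually at or above 50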;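 further: 0% = plate neutral controls and 100% = maraviroc near 300 nM; one replicate is shown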
# * marks the source's active call; other numbers are inactive results; [ ] = dose if it differs, or a comment.
SMILES,Env fusion inh
Cn1cnc(CCNC(=O)C[C@H]2CC[C@@H]3[C@H](COC[C@H](O)CN3C(=O)Nc3ccc(C(F)(F)F)cc3)O2)c1,-8[16.7 µM]
CC(C)NC(=O)N1CC2(C1)[C@@H](c1ccccc1)[C@H](CO)N2C(=O)C1CCC1,10[16.7 µM]
CC(C)NC(=O)N(C)C[C@@H]1Oc2ccc(NC(=O)Cc3cn(C)c4ccccc34)cc2CC(=O)N([C@@H](C)CO)C[C@H]1C,-6[16.7 µM]
CO[C@@H]1CN(C)C(=O)c2cc(NC(=O)Nc3c(C)noc3C)ccc2OC[C@@H](C)N(CCC(F)(F)F)C[C@@H]1C,-14[16.7 µM]
C[C@@H]1CN([C@@H](C)CO)S(=O)(=O)c2ccc(C#CCN(C)C)cc2O[C@@H]1CN(C)C(=O)C1CCCCC1,-13[16.7 µM]
CO[C@H]1CN(C)C(=O)c2cc(NS(=O)(=O)c3cn(C)cn3)ccc2OC[C@H](C)N(C)C[C@@H]1C,7[16.7 µM]
CCCC(=O)N1CCC2(CC1)CN(C(=O)COC)[C@@H](CO)c1c2c2ccc(OC)cc2n1C,-4[16.7 µM]
CO[C@@H]1CN(C)C(=O)c2ccc(NS(C)(=O)=O)cc2OC[C@H](C)N(Cc2nccs2)C[C@H]1C,-11[16.7 µM]
COC(=O)c1cc2c(c3c4cc(OC)ccc4n(C(=O)c4ccccc4)c13)C(=O)N(C1CCCCC1)C2,-4
C[C@H](CO)N1C[C@H](C)[C@H](CN(C)Cc2ccc(C(F)(F)F)cc2)Oc2ccc(NC(=O)CCN3CCOCC3)cc2C1=O,8[16.7 µM]
C[C@@H]1CN(c2ccc(N3CCNC[C@@H]3C)cc2C#N)CCN1Cc1ccccc1,12
COc1ccccc1CNC(=O)C[C@H]1CC[C@H]2[C@@H](COC[C@H](O)CN2Cc2ccc3c(c2)OCO3)O1,-22[16.7 µM]
COCC(=O)N[C@@H]1C=C[C@H](CC(=O)NCc2ccc(Cl)cc2)O[C@@H]1CO,-48[16.7 µM]
C/C=C/c1ccc2c(c1)O[C@@H](CN(C)C(=O)C1CCC1)[C@@H](C)CN([C@H](C)CO)S2(=O)=O,-1[16.7 µM]
O=C(C[C@@H]1CC[C@@H]2[C@H](COC[C@@H](O)CN2C(=O)c2ccccc2)O1)N1CCOCC1,11[16.7 µM]
CO[C@H]1CN(C)C(=O)c2cc(NC(=O)c3ccc4c(c3)OCO4)ccc2OC[C@H](C)N(CC2CC2)C[C@@H]1C,-1[16.7 µM]
CO[C@H]1CN(C)C(=O)c2ccc(NC(=O)c3cccc(Oc4ccccc4)c3)cc2OC[C@@H](C)NC[C@@H]1C,3[16.7 µM]
COc1cccc(-c2ccccc2[C@H]2[C@@H](CO)N(C(=O)Cc3ccccc3)[C@H]2C#N)c1,32[16.7 µM]
Cc1noc(C)c1NC(=O)Nc1ccc2c(c1)C(=O)N(C)[C@@H]1CC[C@H](CC(=O)N[C@@H]3CCN(Cc4ccccc4)C3)O[C@H]1CO2,0[16.7 µM]
CC[C@H](C)[C@H]1CNC(=O)C(=O)N1CC1CCN(CC(C)C)CC1,0
O=C(C[C@H]1CC[C@H]2[C@@H](COC[C@H](O)CN2C(=O)Nc2ccc(Cl)c(Cl)c2)O1)NCc1ccncc1,70*[16.7 µM]
Cc1ccc(C(=O)N(C)[C@H]2C[C@H]3c4[nH]c5c(-c6ccccc6)cccc5c4CCN3C(=O)[C@H]2[C@H](C)O)cc1,13
O=C(C[C@H]1CC[C@@H]2[C@H](COC[C@@H](O)CN2Cc2ccc(Oc3ccccc3)cc2)O1)N1CCc2ccccc2C1,9[16.7 µM]
COc1cccc(CNC(=O)C[C@H]2CC[C@H](NC(C)=O)[C@@H](CO)O2)c1,8[16.7 µM]
COc1cccc(S(=O)(=O)N2C[C@@H](O)COC[C@@H]3O[C@H](CC(=O)Nc4ccccc4)CC[C@H]32)c1,-2[16.7 µM]
CCS(=O)(=O)Nc1ccc2c(c1)C(=O)N(C)C[C@H](OC)[C@H](C)CN(CC1CCCC1)[C@@H](C)CO2,-8[16.7 µM]
Cc1ccc(S(=O)(=O)Nc2ccc3c(c2)C(=O)N([C@@H](C)CO)C[C@@H](C)[C@@H](CN(C)Cc2ccccc2)O3)cc1,-37[16.7 µM]
CO[C@@H]1CN(C)C(=O)c2cc(NC(=O)NC(C)C)ccc2OC[C@@H](C)N(Cc2cncnc2)C[C@H]1C,3[16.7 µM]
CN1C(=O)c2cc(NC(=O)c3ccc(Cl)cc3)ccc2OC[C@H]2O[C@H](CC(=O)O)CC[C@@H]21,9[16.7 µM]
CN1CCN(C(=O)C[C@@H]2C[C@H]3c4cc(NC(=O)C5CCC5)ccc4O[C@H]3[C@H](CO)O2)CC1,0[16.7 µM]
COc1cccc(S(=O)(=O)Nc2ccc3c(c2)OC[C@H](C)N(C(=O)Cc2cccnc2)C[C@@H](C)[C@@H](OC)CN(C)C3=O)c1,11[16.7 µM]
C[C@@H]1CN([C@H](C)CO)C(=O)c2cc(NC(=O)c3ccncc3)ccc2O[C@H]1CN(C)Cc1ccc(Cl)c(Cl)c1,-1[16.7 µM]
CO[C@H]1CC[C@@H]2CCOc3ccc(C#N)cc3C(=O)N(C)C[C@H](C)C(=O)N(C)C[C@@H]1O2,-83[16.7 µM]
C[C@@H]1CN([C@@H](C)CO)C(=O)c2cc(NC(=O)c3ccccc3)ccc2O[C@@H](C)CCCCO[C@H]1CN(C)C(=O)c1ccccc1,10[16.7 µM]
C[C@@H]1CN([C@@H](C)CO)C(=O)c2c(c3ccccc3n2C)-c2ccccc2CO[C@@H]1CN(C)C(=O)N[C@H](C)c1ccccc1,-8[16.7 µM]
COc1ccccc1S(=O)(=O)N[C@@H]1CC[C@H](CC(=O)NCc2cccc(F)c2)O[C@@H]1CO,-6[16.7 µM]
CCC(=O)Nc1ccc2c(c1)OC[C@H](C)N(C(=O)NC(C)C)C[C@H](C)[C@@H](OC)CN(C)C2=O,-4[16.7 µM]
COc1ccc(NC(=O)N(C)C[C@H]2Oc3c(NC(=O)NC4CCCCC4)cccc3C(=O)N([C@@H](C)CO)C[C@H]2C)cc1,-17[16.7 µM]
CC(C)NC(=O)Nc1ccc2c(c1)C(=O)N([C@@H](C)CO)C[C@H](C)[C@@H](CN(C)Cc1ccncc1)OCCCC[C@@H](C)O2,3[16.7 µM]
C#CCOc1ccccc1C(=O)NNc1ccc([N+](=O)[O-])cc1[N+](=O)[O-],41
C[C@@H]1CN([C@@H](C)CO)S(=O)(=O)c2ccc(-c3cncnc3)cc2O[C@@H]1CN(C)Cc1ccc(Oc2ccccc2)cc1,-2[16.7 µM]
CC(C)CC#Cc1cnc2c(c1)C(=O)N([C@@H](C)CO)C[C@H](C)[C@H](CN(C)C(=O)c1cccc(F)c1)O2,13[16.7 µM]
CNC[C@@H]1Oc2ccc(NC(=O)Nc3c(C)noc3C)cc2CC(=O)N([C@@H](C)CO)C[C@H]1C,-11[16.7 µM]
CO[C@@H]1CN(C)C(=O)c2ccc(NC(C)=O)cc2OC[C@@H](C)N(C(=O)Cc2ccccn2)C[C@@H]1C,3[16.7 µM]
O=C(Nc1ccccc1)OC[C@@H]1CSCCS(=O)(=O)N1,8
CCCNC(=O)C[C@@H]1C[C@@H]2c3cc(NC(=O)COC)ccc3O[C@@H]2[C@H](CO)O1,-6[16.7 µM]
COc1cccc(S(=O)(=O)Nc2ccc3c(c2)[C@@H]2C[C@H](CC(=O)NCc4ccccc4F)O[C@@H](CO)[C@@H]2O3)c1,3[16.7 µM]
Cc1noc(C)c1NC(=O)Nc1ccc2c(c1)C(=O)N(C)[C@H]1CC[C@@H](CC(=O)N[C@@H]3CCN(Cc4ccccc4)C3)O[C@@H]1CO2,-10[16.7 µM]
CCCNC(=O)N1CCC2(CC1)CN(C(=O)c1ccccc1)[C@H](CO)c1[nH]c3cc(OC)ccc3c12,5[16.7 µM]
COc1ccc2c3c(n(C)c2c1)[C@H](CO)N(C(=O)c1ccccn1)CC31CCN(C(=O)c2ccccn2)CC1,-26[16.7 µM]
O=C/C=C/c1ccc2c(c1)OCO2,11[16.7 µM]
O=C(C[C@H]1C[C@H]2c3cc(NS(=O)(=O)c4ccc(F)cc4)ccc3O[C@H]2[C@H](CO)O1)N1CCc2ccccc2C1,6[16.7 µM]
CO[C@@H]1CN(C)C(=O)c2cc(NS(C)(=O)=O)ccc2OC[C@@H](C)N(C(=O)C2CCOCC2)C[C@H]1C,-10[16.7 µM]
C[C@@H]1CN([C@@H](C)CO)C(=O)CCCn2cc(nn2)CO[C@@H]1CN(C)S(=O)(=O)c1ccccc1,5[16.7 µM]
O=C(NCC1CC1)[C@@H]1N[C@@H]2c3ccc(C4=CCCCC4)c(=O)n3C[C@@H]2[C@H]1CO,7[16.7 µM]
O=C(NCC[C@@H]1CC[C@H](NC(=O)c2cccnc2)[C@H](CO)O1)Nc1ccc(C(F)(F)F)cc1,17[16.7 µM]
COc1cccc(NC(=O)N(C)C[C@H]2OCc3ccccc3-c3ccccc3C(=O)N([C@@H](C)CO)C[C@H]2C)c1,-21[16.7 µM]
CC(C)CC#Cc1ccc2c(c1)O[C@H](CN(C)Cc1ccc3c(c1)OCO3)[C@@H](C)CN([C@H](C)CO)S2(=O)=O,26[16.7 µM]
CN(C)CC(=O)Nc1ccc2c(c1)[C@@H]1C[C@H](CC(=O)NCc3ccc(-c4ccccc4)cc3)O[C@H](CO)[C@@H]1O2,-15[16.7 µM]
O=C(C[C@@H]1CC[C@@H]2[C@H](COC[C@@H](O)CN2C(=O)Nc2ccc(Cl)cc2)O1)NCC1CCCCC1,19[16.7 µM]

# Reformatted bar-delimited: entries from further up
canonical_smiles | Env fusion inh
CC(C)CC#Cc1cnc2c(c1)C(=O)N([C@@H](C)CO)C[C@H](C)[C@H](CN(C)C(=O)c1cccc(F)c1)O2 | 13[16.7 µM]
Cc1ccc(S(=O)(=O)Nc2ccc3c(c2)C(=O)N([C@@H](C)CO)C[C@@H](C)[C@@H](CN(C)Cc2ccccc2)O3)cc1 | -37[16.7 µM]

# Following part:
SMILES,Env fusion inh
CCCCN1CC(N2CCCC2)CS1(=O)=O (stereo not given),-10
CC(C)NC(=O)Nc1ccc2c(c1)C(=O)N([C@H](C)CO)C[C@H](C)[C@H](CN(C)C(=O)C1CCCCC1)OCCCC[C@@H](C)O2,20[16.7 µM]
COc1ccccc1Cc1c(C2CCCCC2)nc2c(C)cc(Br)cn12,-11
CO[C@H]1CN(C)C(=O)c2ccc(NS(=O)(=O)c3ccc(F)cc3)cc2OC[C@@H](C)NC[C@@H]1C,1[16.7 µM]
CCc1c(-c2cccc(Br)c2)ncn1CCc1ccccc1OC,-28
c1coc(-c2nc3c4ccccc4ccn3c2Cc2ccsc2)c1,63*
COC(=O)C1=C(C)N(Cc2cccc(C(F)(F)F)c2)C(=NCc2cc(OC)c(OC)c(OC)c2)NC1c1cccc(Cl)c1 (stereo not given),-7
CCCNC(=O)N1CCC2(CC1)CN(C(=O)CN1CCOCC1)[C@@H](CO)c1[nH]c3cc(OC)ccc3c12,-8[16.7 µM]
O=C(N[C@H](Cc1ccccc1)C(=O)N1CCCN(Cc2ccccc2F)CC1)[C@H]1O[C@@H](n2ccc(=O)[nH]c2=O)[C@H](O)[C@@H]1O,14
COc1cccc(-c2ccc([C@H]3[C@H]4CN(C(=O)C5CCCC5)CC(=O)N4[C@H]3CO)cc2)c1,13[16.7 µM]
C[C@@H]1CN([C@H](C)CO)S(=O)(=O)c2ccc(C3=CCCCC3)cc2O[C@H]1CN(C)C(=O)C1CCOCC1,-9[16.7 µM]
COc1ccc(-c2cnc3c(c2)C(=O)N([C@H](C)CO)C[C@@H](C)[C@@H](CN(C)S(=O)(=O)c2ccc(OC)cc2)O3)cc1,-3[16.7 µM]
O=C(C[C@@H]1C=C[C@@H](NC(=O)Nc2cccc(F)c2)[C@H](CO)O1)NCC1CCCCC1,3[16.7 µM]
COc1ccc(NC(=O)N(C)C[C@H]2Oc3ccc(N(C)C)cc3CC(=O)N([C@H](C)CO)C[C@H]2C)cc1,25[16.7 µM]
Cc1ccc(S(=O)(=O)Nc2ccc3c(c2)CC(=O)N([C@@H](C)CO)C[C@H](C)[C@@H](CN(C)Cc2ccc(C(=O)O)cc2)O3)cc1,0[16.7 µM]
CN1C(=O)c2cc(NC(=O)Cc3cccs3)ccc2OC[C@H]2O[C@@H](CC(=O)NCCCN3CCOCC3)CC[C@H]21,5[16.7 µM]
C[C@H](CO)N1C[C@H](C)[C@@H](CN(C)S(=O)(=O)c2ccccc2)Oc2c(NC(=O)c3cnccn3)cccc2C1=O,-19[16.7 µM]
C[C@@H]1CN([C@H](C)CO)C(=O)CCCn2cc(nn2)CO[C@@H]1CN(C)S(C)(=O)=O,-2[16.7 µM]
COc1ccc2c3c(n(C)c2c1)[C@H](CO)N(Cc1ccccc1)CC31CCN(C(=O)Nc2cccc(F)c2)CC1,17[16.7 µM]
CNC[C@H]1OCCCC[C@H](C)Oc2ccc(NS(=O)(=O)c3ccccc3)cc2C(=O)N([C@H](C)CO)C[C@@H]1C,-12[16.7 µM]
CCCCCC(=O)NC1CCCCN(C)C1=O (stereo not given),-7

# Structural class, the entries above with a Cl atom (6)
SMILES,Env fusion inh
COCC(=O)N[C@@H]1C=C[C@H](CC(=O)NCc2ccc(Cl)cc2)O[C@@H]1CO,-48[16.7 µM]
O=C(C[C@H]1CC[C@H]2[C@@H](COC[C@H](O)CN2C(=O)Nc2ccc(Cl)c(Cl)c2)O1)NCc1ccncc1,70*[16.7 µM]
CN1C(=O)c2cc(NC(=O)c3ccc(Cl)cc3)ccc2OC[C@H]2O[C@H](CC(=O)O)CC[C@@H]21,9[16.7 µM]
C[C@@H]1CN([C@H](C)CO)C(=O)c2cc(NC(=O)c3ccncc3)ccc2O[C@H]1CN(C)Cc1ccc(Cl)c(Cl)c1,-1[16.7 µM]
O=C(C[C@@H]1CC[C@@H]2[C@H](COC[C@@H](O)CN2C(=O)Nc2ccc(Cl)cc2)O1)NCC1CCCCC1,19[16.7 µM]
COC(=O)C1=C(C)N(Cc2cccc(C(F)(F)F)c2)C(=NCc2cc(OC)c(OC)c(OC)c2)NC1c1cccc(Cl)c1 (stereo not given),-7

# Only part of the results is shown; rates above refer to the full screens.
